From PubChem BioAssay
GLA inh pH 4.5: alpha-galactosidase A (human) inhibition, pH 4.5. 230,000 tested, under 10 active. P06280. purified enzyme, 4-MU-alpha-Gal fluorescence, pH 4.5. activity change, negative = inhibition, % at 105 µM; inconclusive = small, poorly fitted or top-dose-only inhibition, or a rising curve; inactive = flat fitted curve, though single readings scatter; no compound was filed as active;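 note: 0% = full activity with enzyme and -100% = basal without enzyme; dose as in the result columns while the protocol names 77 µM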
Rango-impB inh: inhibitors of Rango-importin beta complex formation. Rango CFP/YFP FRET sensor + importin beta, 45 min. actives 0.031% (n = 340,000). AID 540263. Q14974. Potency, µM (highest dose often 92.2 µM), for inactives: at the highest dose inhibition of complex formation; active = rising FRET ratio curve, often small or poorly fitted; inconclusive = mostly compound fluorescence or quenching in the first reads; inactive = flat curves in all reads;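 note: potency is the fitted concentration of half-maximal effect; 0% = DMSO wells and 100% = buffer wells lacking importin beta; nearly all actives have a fitted effect of over 15% in size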
Target sequence (Q14974 whole entry, looked up): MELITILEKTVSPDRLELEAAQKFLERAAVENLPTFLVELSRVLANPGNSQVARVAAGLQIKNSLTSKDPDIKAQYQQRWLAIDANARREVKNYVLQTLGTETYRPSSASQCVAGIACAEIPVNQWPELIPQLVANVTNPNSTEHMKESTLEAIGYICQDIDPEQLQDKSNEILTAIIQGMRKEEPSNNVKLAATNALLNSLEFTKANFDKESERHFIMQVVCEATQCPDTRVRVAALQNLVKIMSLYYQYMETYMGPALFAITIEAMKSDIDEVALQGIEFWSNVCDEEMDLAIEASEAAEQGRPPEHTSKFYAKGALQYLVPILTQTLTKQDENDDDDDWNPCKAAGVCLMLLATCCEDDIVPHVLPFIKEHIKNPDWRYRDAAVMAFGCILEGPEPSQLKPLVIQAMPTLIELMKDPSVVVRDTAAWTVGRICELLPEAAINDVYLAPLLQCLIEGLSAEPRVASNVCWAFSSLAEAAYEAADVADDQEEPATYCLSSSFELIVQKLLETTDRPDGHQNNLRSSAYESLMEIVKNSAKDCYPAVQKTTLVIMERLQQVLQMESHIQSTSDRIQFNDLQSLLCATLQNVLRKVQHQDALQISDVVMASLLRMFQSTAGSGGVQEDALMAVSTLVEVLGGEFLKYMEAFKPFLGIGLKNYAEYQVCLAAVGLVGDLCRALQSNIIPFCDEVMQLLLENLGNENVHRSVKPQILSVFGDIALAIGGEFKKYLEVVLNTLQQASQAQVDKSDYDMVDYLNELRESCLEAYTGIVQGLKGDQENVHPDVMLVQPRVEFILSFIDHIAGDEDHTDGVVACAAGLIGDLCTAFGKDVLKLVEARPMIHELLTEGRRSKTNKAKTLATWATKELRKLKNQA
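FRET biosensor Rango (snurportin 1 IBB between N-terminal EYFP and C-terminal Cerulean), 50 nM in PBS/1 mM DTT/0.02% Tween-20/0.1% BSA, preincubated 5 min RT with compound; 0.125 microM importin beta added, 45 min RT, CFP/YFP FRET ratio read.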
Rango release inh: inhibitors of RanGTP-induced Rango-importin beta complex dissociation; AID 540253; Potency, µM (top dose mostly 46.1 µM), for inactives: at the top dose activity change, negative = inhibition; Biochemical FRET Rango-importin beta, RanGTP-induced dissociation; actives 0.071% (n = 340,000); active means falling FRET ratio curve, often poorly fitted, with flat reads before Ran was added; inconclusive means other falling curves, or compound fluorescence or quenching; inactive means flat or rising ratio curve;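 note: potency is the fitted concentration of half-maximal effect; % of control where 0% means no effect; nearly all actives have a fitted effect of over 45% in size; -100% = wells without RanGTP and RCC1; the record marks most hits as doubtful in a second field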
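Rango (0.1 uM)–importin beta (0.25 uM) complex; RanGTP-RCC1 trigger; 45 min RT; CFP/YFP FRET read.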
miR-21 reporter: miR-21 reporter, rising signal | Potency, µM (top dose mostly 38.3 µM), for the others: at the top dose reporter change, positive = more light | 340,000 tested, under 10 active | HeLa miR-21 FLuc reporter, luciferase, 48 h | AID 2288; active = well fitted rising curve with a large enough effect; inconclusive = small, poorly fitted or top-dose-only effect; inactive = no such curve, though single readings can be large or run the other way;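 note: % of control where 0% means no effect; miR-21 action dims this reporter so a rising signal means less miR-21 action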
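HeLa cells endogenously expressing miR-21, stably carrying CMV-driven firefly luciferase with a downstream miR-21 binding site, 2000 cells/well. Titrations up to approximately 40 uM, 48 hours; luciferase luminescence read.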
Starred values were filed as active, the others as inactive; ? = inconclusive; / = not tested or not shown; & = joins results of further samples.

(1) Cc1c(C(=O)N2CCC3(CC2)OCCO3)sc2ncnc(N(C)c3ccccc3)c12
(2) Cc1ccc2c(c1)N(C(=O)CCC(=O)N1CCC3(CC1)OCCO3)CC(C)O2 (stereo not given)
(3) O=c1oc2ccccc2c(O)c1[C@H]1c2ccc(O)cc2Oc2c1c(=O)oc1ccccc21
(4) CCCNC(=O)N1[C@H]2CC[C@@H]1C(C(=O)OC)=C(c1ccc(S(C)(=O)=O)cc1)C2
(5) COc1ccc(NC(=O)N2C[C@@H]3C[C@@H](C2)c2cccc(=O)n2C3)cc1
(6) CC1CC(OC(=O)c2ccccc2)(c2ccccc2)C(C)CN1C (stereo not given)
(7) C/C(=C\c1ccc(N(C)C)cc1)[N+](=O)[O-]
(8) CC1=C(C(=O)O)N2C(=O)[C@@H](NC(=O)CCCC(=O)O)[C@H]2SC1

Screen / compound no.	1	2	3	4	5	6	7	8
GLA inh pH 4.5	-3	/	5	/	/	10	-15	11
Rango-impB inh	3.8%	-2.9%	-2.6%	5.5%	1.0%	-0.2%	-1.2%	-5.1%
Rango release inh	9%	25%	17%	-3%	4%	3%	4%	-2%
miR-21 reporter	-21%	-4%	4%	/	-2%	-14%	?	-1%

(9) Cn1cccc1CN1CCN(C(=O)COc2ccccc2)CC1
(10) CCN(CC)P(=O)(NC(=O)C(Cl)(Cl)Cl)N(CC)CC.[Cl-].[Cl-].[Cl-].[Nd+3]
(11) COC(=O)C1=C(N)Oc2c(c(=O)oc3ccccc23)[C@]12C(=O)N(C)c1ccccc12
(12) Cc1onc(-c2ccccc2)c1C(=O)N1CCC2(CC1)OCCO2
(13) CCOC(=O)C1C(=O)N(C)C2(C)CC1c1ccccc1O2 (stereo not given)
(14) NC1=NC(=O)C(c2ccccc2)O1 (stereo not given)
(15) COc1cccc(-n2c(CNC(=O)OC(C)(C)C)n[nH]c2=S)c1
(16) Cc1onc(-c2ccccc2Cl)c1C(=O)NCc1ccc2c(c1)cc(C)n2C

Screen / compound no.	9	10	11	12	13	14	15	16
GLA inh pH 4.5	5	0	3	-3	-7	1	-4	-6
Rango-impB inh	0.8%	-2.2%&1.1%	-0.2%	6.2%	-0.5%	/	?	0.0%
Rango release inh	-9%	3%&-5%	1%	-3%	15%	/	0%	?
miR-21 reporter	-3%	14%	0%	-4%	0%	4%	1%	3%

(17) C=CCn1c(O)c(C(C)=Nc2cc(OC)ccc2OC)c(=O)[nH]c1=O
(18) Cn1c(O)c(C=NC2CC(C)(C)NC(C)(C)C2)c(=O)n(C)c1=O
(19) CCC1=Nc2cc(C(=O)N3CCC4(CC3)OCCO4)ccc2Sc2ccccc21
(20) CC(=NCc1cccnc1)c1c(O)n(C2CCCCC2)c(=O)[nH]c1=O
(21) COC1=CC=C2[C@H]3Cc4ccc(OC)c5c4[C@@]2(CCN3C)C1O5 (stereo not given in full)
(22) Cn1c(O)c(C(=Nc2ccccc2)SCc2ccccc2Cl)c(=O)n(C)c1=O
(23) COc1cc(O)c(C(=O)O)c(-c2cc(O)c(O)cc2C)c1
(24) CN1CCc2nc3sc(C(=O)NC4CC4)c(N)c3cc2C1

Screen / compound no.	17	18	19	20	21	22	23	24
GLA inh pH 4.5	5	4	/	-5	/	9	4	7
Rango-impB inh	-1.6%	1.5%	1.8%	-0.6%	-1.0%	0.3%	-0.6%	?
Rango release inh	19%	4%	-21%	-3%	-2%	10%	-18%	-7%
miR-21 reporter	-16%	-5%	-1%	-1%	/	?	29%	-5%

(25) CN(C(=O)CNC(=O)OCc1ccccc1)c1ccc(Br)cc1C(=O)c1ccccc1Cl
(26) CC(C)(C)C(=O)c1cn(CC(=O)NCc2ccco2)c2ccccc12
(27) C=Cn1ccnc1P(=S)(c1ccccc1)c1nccn1C=C
(28) C=CCN1C(=O)NC(=O)C(CCc2ccncc2)(CCc2ccncc2)C1=O
(29) CC(C)COP(=O)(c1ccc(N(C)C)cc1)C(Nc1ccccc1)c1cccnc1 (stereo not given)
(30) COc1ccc(CN2CCN(Cc3ccccc3)CC2)c(OC)c1
(31) CCN1CCN(C(=O)Cc2ccccc2OC)CC1
(32) COc1ccc(S(=O)(=O)N2CCOCC2)cc1NC(=O)COC(=O)Cc1ccccc1

Screen / compound no.	25	26	27	28	29	30	31	32
GLA inh pH 4.5	-4	12	-7	-27	-13	2	3	/
Rango-impB inh	-2.5%	-4.3%	-0.7%	-0.8%	0.7%	-4.2%	-1.5%	2.5%
Rango release inh	-4%	-16%	37%	3%	5%	-12%	-2%	10%
miR-21 reporter	19%	-53%	1%	-1%	-2%	-7%	0%	/

(33) CCOC(=O)c1ccc(NC(=O)N2C[C@@H]3C[C@@H](C2)c2cccc(=O)n2C3)cc1
(34) CC1(C)N2CC3([N+](=O)[O-])CN1CC([N+](=O)[O-])(C2)C3
(35) Cc1cnc(-n2c(=S)[nH]c3ccccc3c2=O)s1
(36) C=CCN1CC[C@]23c4c5ccc(O)c4O[C@H]2/C(=N/NC(=O)c2ccccc2)CC[C@@]3(O)[C@H]1C5
(37) COc1ccc(N/N=C/c2c(O)n(-c3cccc(C)c3)c(=O)[nH]c2=O)cc1
(38) CC1CCC2C(C)C(=O)OC3OC4(C)CCC1C32OO4 (stereo not given)
(39) CCOc1cccc(N2C(=O)CC(=O)NC2=O)c1
(40) COc1ccc(C2SCC(=O)Nc3c2c(=O)[nH]n3C2CCCCCC2)cc1OC (stereo not given)

Screen / compound no.	33	34	35	36	37	38	39	40
GLA inh pH 4.5	/	-2	/	-6&-8	-7	-5	0	4
Rango-impB inh	0.1%	0.3%	-0.1%	-3.7%	0.2%	-5.7%	?	7.1%
Rango release inh	14%	-7%	6%	-8%	-7%	9%	8%	-1%
miR-21 reporter	0%	0%	/	/	-8%	23%	-1%	-4%

(41) O=C(Nc1ccc(Cl)cc1)Nc1nccs1
(42) O=C1NC(=O)C(CCc2ccncc2)(CCc2ccncc2)C(=O)N1CCc1ccc(F)cc1
(43) O=C(N/N=C/c1c(O)n(Cc2ccccc2)c(=O)[nH]c1=O)c1ccccc1
(44) FC(F)(F)c1ccc(CN2CCNCC2)cc1
(45) C=CC(=O)NCNC(=O)C=C
(46) COc1ccccc1N1C(=O)NC(=O)/C(=C/c2ccc([N+](=O)[O-])s2)C1=O
(47) Cc1ccc2c(C)c3ccc4ccccc4c3c[n+]2c1
(48) Nc1ccc(C(=O)N/N=C2/CN3CCC2CC3)cc1

Screen / compound no.	41	42	43	44	45	46	47	48
GLA inh pH 4.5	2	4	1	9	/	-4	/	-6
Rango-impB inh	-4.2%	-5.7%	2.9%	?	0.5%	-1.9%	?	?
Rango release inh	1%	1%	4%	-1%	-6%	8%	2%	6%
miR-21 reporter	-1%	-3%	-42%	2%	/	-1%	/	-24%

(49) CCCNC(=O)N1[C@H]2CC[C@@H]1C(C(=O)OC)=C(c1c(C)noc1C)C2
(50) CCN(CC)CCN=Cc1c(O)n(Cc2ccccc2)c(=O)[nH]c1=O
(51) O=c1[nH]c(=O)n(-c2ccc(F)cc2)c(O)c1C=NCCN1CCCCC1
(52) CN1CCCC(C(=O)c2ccccc2)C1 (stereo not given)
(53) N#CCCn1cc(C=C2C(=O)NC(=O)NC2=O)c(-c2ccccc2)n1
(54) CCCCOC(=O)C1=C(N)OC2=C(C(=O)CCC2)[C@]12C(=O)Nc1ccccc12
(55) CN1CCc2nc(SC(C(=O)O)c3ccccc3)c(C#N)c(-c3cccs3)c2C1 (stereo not given)
(56) CN1C(=O)CN=C(c2ccccc2Cl)c2cc(Br)ccc21

Screen / compound no.	49	50	51	52	53	54	55	56
GLA inh pH 4.5	/	-5&4	-2	1	2	1	-3	/
Rango-impB inh	8.4%	-0.2%&2.3%	2.3%	7.2%	-1.7%	0.1%	?	11%
Rango release inh	-1%	?	-6%	19%	-2%	-7%	-22%	7%
miR-21 reporter	/	0%&3%	-1%	-4%	2%	1%	-2%	0%

Rewritten field by field: entries from further up
(50) CCN(CC)CCN=Cc1c(O)n(Cc2ccccc2)c(=O)[nH]c1=O
  GLA inh pH 4.5 = -5&4
  Rango-impB inh = -0.2%&2.3%
  Rango release inh = ?
  miR-21 reporter = 0%&3%
(56) CN1C(=O)CN=C(c2ccccc2Cl)c2cc(Br)ccc21
  GLA inh pH 4.5 = /
  Rango-impB inh = 11%
  Rango release inh = 7%
  miR-21 reporter = 0%
(49) CCCNC(=O)N1[C@H]2CC[C@@H]1C(C(=O)OC)=C(c1c(C)noc1C)C2
  GLA inh pH 4.5 = /
  Rango-impB inh = 8.4%
  Rango release inh = -1%
  miR-21 reporter = /
(51) O=c1[nH]c(=O)n(-c2ccc(F)cc2)c(O)c1C=NCCN1CCCCC1
  GLA inh pH 4.5 = -2
  Rango-impB inh = 2.3%
  Rango release inh = -6%
  miR-21 reporter = -1%

Additional entries
(57) CCCCNC(=O)CN1C(=O)CN=C(c2ccccc2)c2ccccc21
(58) O=[N+]([O-])c1ccccc1CN1CC=C(c2ccc(F)cc2)CC1
(59) CC(C)CNC(=O)c1c(N)n(Cc2ccco2)c2nc3ccccc3nc12
(60) O=C(O)C(Br)CBr (stereo not given)
(61) O=C(O)[C@H]1NC[C@H]2C[C@H]21
(62) NCCc1c(Cc2ccccc2)[nH]c2ccccc12
(63) CCC(=NCCO)c1c(O)n(C2CCCCC2)c(=O)[nH]c1=O
(64) O=C(Nc1cccc(Cl)c1)c1c(O)c2c(n(Cc3ccccc3)c1=O)CCCC2

Screen / compound no.	57	58	59	60	61	62	63	64
GLA inh pH 4.5	5	/	17	/	5	/	3	-2
Rango-impB inh	0.9%	3.7%	?	-0.1%	1.7%	1.3%	-2.5%	/
Rango release inh	16%	-9%	?	-15%	8%	-7%	-17%	/
miR-21 reporter	0%	-19%	5%	/	0%	/	-8%	-3%

(65) CCCN1CCc2cccc3c2[C@H]1Cc1ccc(O)c(O)c1-3
(66) O=c1[nH]c(=O)n(-c2cccc3ccccc23)c(O)c1C=NCCCn1ccnc1
(67) COC(=O)C1=C(c2cccc(C#N)c2)C[C@@H]2CC[C@H]1N2C(=O)NCCNC(C)=O
(68) Cc1nc2ccccc2c(=O)n1-c1ccc(Cl)cc1Cl
(69) Oc1ccc(-[n+]2c(-c3ccccc3)cc(-c3ccccc3)cc2-c2ccccc2)cc1
(70) Cc1ccc2c(c1)N(CCC(=O)N1CCC3(CC1)OCCO3)C(=O)C(C)O2 (stereo not given)
(71) CN(C)C(=O)Oc1ccc(NC(=O)N2CCOCC2)cc1
(72) COc1cc(N2CCOCC2)ccc1/C=C1\C(=O)NC(=O)N(Cc2ccc3c(c2)OCO3)C1=O

Screen / compound no.	65	66	67	68	69	70	71	72
GLA inh pH 4.5	/	4	/	/	/	0	/	-25
Rango-impB inh	?	-1.7%	3.7%	-0.4%	?	-0.4%	-0.8%	?
Rango release inh	-21%	5%	11%	5%	-22%	-16%	-3%	-15%
miR-21 reporter	/	-2%	/	2%	/	2%	-4%	-2%

(73) O=C1NC(=O)C(=Cc2ccc(OCC(=O)N3CCOCC3)cc2)C(=O)N1
(74) CCCC/C(C)=C/[C@@H](NP(=O)(c1ccccc1)c1ccccc1)c1ccccc1
(75) CN1CCCN(C(=O)COc2ccc(F)cc2F)CC1
(76) CCc1nc2ccc(Br)cc2c(=O)n1-c1ccccc1C(F)(F)F
(77) COC(=O)N1C(c2ccccc2)C1c1ccccc1 (stereo not given)
(78) Cn1c(O)c(/C=N/N2CCOCC2)c(=O)[nH]c1=S
(79) COc1ccc(OC)c2c1CCC1NCCOC21 (stereo not given)
(80) C/C(=N\N1CCCCCC1)c1c(O)n(-c2ccccc2)c(=O)[nH]c1=O

Screen / compound no.	73	74	75	76	77	78	79	80
GLA inh pH 4.5	-10	-1&-12	/	/	4	-2	-2	3
Rango-impB inh	-1.8%	-0.2%	-3.2%	0.0%	1.2%	?	0.4%	0.0%
Rango release inh	-16%	0%	-4%	-7%	-1%	19%	1%	6%
miR-21 reporter	1%	16%	-6%	/	0%	0%	-2%	-14%

A portion of the library; rates above refer to the full screens.
